Compound activity as filed in PubChem BioAssay.
HSV replic up – enhancers of HSV replication in host cells, fold increase, host cell viability; HSV replication augmentation in cells; maximum fold increase; 0.005% of 220,000 active;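 active means peak rise of 1.5-fold or more in the series; tested in PC3 cells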;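 further: first round at 10 µM; read as green reporter fluorescence; hits show the peak of a series up to 25 µM; 1 = signal of infected wells without compound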
RGS16-Gao HTS – modulators of RGS16 binding to Galphao, primary screen, biochemical, human proteins, multiplexed bead flow cytometry; AID 1441, 2008; 0.38% of 220,000 active; bead-based flow cytometry RGS16-Galphao binding, fluorescence; actives lie on both sides; binding response (% of control), % at 10 µM; Regulator of G-protein signaling 16 (Homo sapiens) + Guanine nucleotide-binding protein …;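 active means below 25% or above 175%, edge rows of some plates excepted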;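 further: Galphao activated by GDP with aluminum fluoride before binding; 100% = wells without compound and 0% = beads without RGS; some results beyond the cut were filed as inactive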
Target sequence (O15492 whole entry, looked up): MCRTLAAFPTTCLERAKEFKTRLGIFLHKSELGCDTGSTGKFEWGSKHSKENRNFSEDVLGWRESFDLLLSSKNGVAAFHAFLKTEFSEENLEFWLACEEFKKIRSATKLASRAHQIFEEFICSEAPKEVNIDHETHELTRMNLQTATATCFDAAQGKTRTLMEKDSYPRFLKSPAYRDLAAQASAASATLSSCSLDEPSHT
Target sequence (P09471 whole entry, looked up): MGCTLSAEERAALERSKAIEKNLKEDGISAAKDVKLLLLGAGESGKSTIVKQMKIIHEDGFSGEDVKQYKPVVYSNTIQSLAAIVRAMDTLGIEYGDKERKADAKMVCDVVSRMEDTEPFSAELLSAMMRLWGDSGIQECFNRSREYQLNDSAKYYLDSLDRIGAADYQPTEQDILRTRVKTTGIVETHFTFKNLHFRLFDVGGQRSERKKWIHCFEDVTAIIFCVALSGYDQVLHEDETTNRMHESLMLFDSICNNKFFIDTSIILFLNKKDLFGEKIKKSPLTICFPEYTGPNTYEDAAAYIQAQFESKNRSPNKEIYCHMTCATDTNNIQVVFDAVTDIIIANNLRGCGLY
GALR2 ag – GALR2 receptor agonists, primary screen, cell-based; Galanin receptor type 2 (Homo sapiens), O43603; GALR2-expressing cells, agonist activation read-out; activation, %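 (tested at 5 µM)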; 0.48% of 140,000 active; AID 803, 2007;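 active means above mean plus 3 SD of all compounds, about 5% in these data, not always enough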;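 further: 0% = vehicle buffer wells and 100% = reference agonist at full effect; tested in CHO reporter cells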
Target sequence (O43603 whole entry, looked up): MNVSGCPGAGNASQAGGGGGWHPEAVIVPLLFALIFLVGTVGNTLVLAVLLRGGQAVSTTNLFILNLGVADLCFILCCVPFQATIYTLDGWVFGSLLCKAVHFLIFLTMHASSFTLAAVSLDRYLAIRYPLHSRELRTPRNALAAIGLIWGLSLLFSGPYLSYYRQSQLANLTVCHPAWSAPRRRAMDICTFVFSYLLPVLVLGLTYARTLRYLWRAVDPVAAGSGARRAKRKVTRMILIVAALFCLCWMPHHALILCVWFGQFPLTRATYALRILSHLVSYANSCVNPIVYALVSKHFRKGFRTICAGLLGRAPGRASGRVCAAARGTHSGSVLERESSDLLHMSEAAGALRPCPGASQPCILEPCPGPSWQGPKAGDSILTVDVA
Insulin prom inh – inhibitors of insulin promoter-driven GFP, primary screen, imaging, TRM-6 cells (human fetal islet line), eGFP reporter, cell count. inhibition, % at 2 µM. AID 1273, 2008. 0.9% of 130,000 active. reporter expression induced with tamoxifen;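 active means inhibition above the mean plus 3 SD, with well images judged a real hit on visual review, cut at about 60% in these data, passing the limit was not always enough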
PKD1 inh – inhibitors of human PKD1 kinase, biochemical, fluorescence polarization | Serine/threonine-protein kinase D1 (Homo sapiens), Q15139 | PKD1 kinase fluorescence polarization assay | inhibition, %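 (about 10 µM by stock and volumes)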 | 0.056% of 200,000 active | AID 797, 2007;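 active means inhibition of 50% or more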;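 further: controls were vehicle for no effect and a reference inhibitor for full effect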
Insulin prom inh cell count – also measured in Insulin prom inh; calls as there; normalized cell count, %; measured here: cell count, toxicity; reference of the scale not given here;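 cells exposed to compound for 48 h; stained nuclei by imaging scaled within each plate; lower means fewer cells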
HSV replic up primary fold – second read-out of HSV replic up, no call of its own (marks repeat the call); fold increase; compound at 10 µM; measured here: primary screen fold increase 10 uM; tested in PC3 cells;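 GFP signal in the first replicate; 1 = infected wells without compound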
Active calls of the source: *; i = inactive; · = no result given. Hits appear at their usual frequency. About 1.1% of those tested had a hit in this group.

SMILES,HSV replic up,HSV replic up primary fold,RGS16-Gao HTS,GALR2 ag,Insulin prom inh,Insulin prom inh cell count,PKD1 inh
CCCCCC(O)CCC(=O)NNC1=CC(=O)CC(C)(C)C1 (centres undefined),i,1.1,95,·,·,·,3
COc1ccc(C(=O)CSc2nccc(=O)[nH]2)cc1,i,1.1,103,-2.0,-424,41,-2
Cc1ccc(S(=O)(=O)N2CCC(C(=O)NNC(=O)c3ccc(F)cc3)CC2)cc1,i,0.9,103,·,·,·,-8
O=C(Nc1ccc2c(c1)OCCO2)c1coc2ccccc2c1=O,i,1.3,99,-0.8,·,·,3
CCCS(=O)(=O)Nc1ccc2cn[nH]c2c1,i,0.88,103,·,·,·,3
COc1cc(S(=O)(=O)Nc2cccnc2)ccc1F,i,0.91,101,-3.4,-226,62,-12
CCOC(=O)c1cc(C#N)c(N2CCCCC2)nc1-c1ccccc1,i,1,·,1.1,·,·,-3
O=C(C1CCCCC1)N1CCN(c2ccccc2F)CC1,i,1.1,103,-0.3,·,·,-14
Cc1ccc(Nc2c(-c3ccc(C)o3)nc3ncccn23)cc1,i,1.1,106,·,·,·,·
CCOc1nc(N2CCCCC2)nc(-n2cc(-c3ccccc3)nn2)n1,i,1,98,-1.6,-11,72,1

A run of entries of the results above:
SMILES,HSV replic up,HSV replic up primary fold,RGS16-Gao HTS,GALR2 ag,Insulin prom inh,Insulin prom inh cell count,PKD1 inh
Cc1ccc(Nc2c(-c3ccc(C)o3)nc3ncccn23)cc1,i,1.1,106,·,·,·,·
CCOc1nc(N2CCCCC2)nc(-n2cc(-c3ccccc3)nn2)n1,i,1,98,-1.6,-11,72,1

Back to the main list, repeating the 3 entries before the break.
SMILES,HSV replic up,HSV replic up primary fold,RGS16-Gao HTS,GALR2 ag,Insulin prom inh,Insulin prom inh cell count,PKD1 inh
O=C(C1CCCCC1)N1CCN(c2ccccc2F)CC1,i,1.1,103,-0.3,·,·,-14
Cc1ccc(Nc2c(-c3ccc(C)o3)nc3ncccn23)cc1,i,1.1,106,·,·,·,·
CCOc1nc(N2CCCCC2)nc(-n2cc(-c3ccccc3)nn2)n1,i,1,98,-1.6,-11,72,1
Cc1cc(NC(=O)CCC(=O)N(c2ccc(F)cc2)C(C(=O)NC2CCCC2)c2ccc(C)o2)no1 (centres undefined),i,0.99,102,·,·,·,-4
CCN(CCCNC(=O)CCc1nc(-c2ccc(C)cc2)no1)c1cccc(C)c1,i,0.87,98,-1.1,-42,120,-2
COc1ccc(N2CCN(CC(=O)Nc3cccc(S(=O)(=O)N4CCOCC4)c3)CC2)cc1,i,1.1,103,-1.0,-178,155,-2
N#Cc1c(NC(=O)c2cc(C3CC3)on2)sc2c1CCC2,i,0.82,100,·,·,·,-14
S=C(NCCc1ccccc1)Nc1c(Cl)cccc1Cl,i,0.92,100,·,·,·,·
O=C1CC(SCc2nc3ccccc3[nH]2)C(=O)N1c1cccc(F)c1 (centres undefined),·,·,99,-0.8,-124,88,2
S=C(NCc1ccccc1)NC1CCCc2ccccc21 (centres undefined),i,0.92,100,·,-12,101,-4
COc1ccc(N=C2S/C(=C\c3ccc(C)s3)C(=O)N2CC(C)C)cc1,i,1.1,98,-1.6,7,99,0
COc1cc(S(=O)(=O)Nc2ncccc2C)c(OC)cc1Cl,i,0.99,98,-0.9,·,·,-10
COCc1nc2ccccc2n1Cc1ccccc1Br,i,0.92,101,-3.0,·,·,16
O=C(O)CCSc1nnnn1-c1ccccc1,i,1,110,-0.8,·,·,-8
O=C(CNC(=O)c1ccco1)NCC(=O)OCc1ccc(Cl)cc1,i,1,90,-1.2,-14,77,4
CC1CCN(C(=S)c2cn(Cc3cccc(F)c3)c3ccccc23)CC1,i,0.98,120,-1.7,-8,73,1
CCOC(=O)Nc1cc(C)ccc1OC,i,0.9,92,-3.7,-62,26,-8
NC(=O)c1cccc(N=Cc2cc(Cl)cc(Cl)c2O)c1,i,1.3,105,·,0,99,-8
COc1ccccc1N/C(=N/S(=O)(=O)c1ccc(C)cc1)c1ccc(Cl)cc1,i,0.78,107,-0.9,·,·,3
Cc1c(Cl)cccc1NC(=S)N(CCN(C)C)C(C)c1ccco1 (centres undefined),i,0.88,98,·,·,·,·
Cc1nnc(SCCCCSc2nnc(C)c(=O)[nH]2)[nH]c1=O,i,0.77,102,·,7,126,-9
CC(C)C(NC(=O)CNC(=O)OC(C)(C)C)C(=O)NCc1ccc(Cl)cc1 (centres undefined),i,0.98,95,·,-13,102,0
COc1ccc(OCC(=O)N/N=C(\C)c2cccs2)cc1,i,0.91,104,·,·,·,·
COc1ccc(S(=O)(=O)N(C)CC(=O)N2CCC(C(N)=O)CC2)cc1,i,1.1,103,0.4,-25,57,2
CNC(=S)N1N=C(c2ccc(OC)cc2)CC1c1ccc(N(C)C)cc1 (centres undefined),i,0.98,106,-0.4,23,113,2
CC1Cc2ccccc2C(=O)N1 (centres undefined),i,0.95,94,-1.0,·,·,4
Cn1cccc1Cc1nnc(SCC(=O)Nc2cccc(F)c2)n1CCc1ccccc1,i,0.94,102,-0.6,·,·,2
CCOC(=O)c1c(C)n(C)c2ccc(OC(=O)c3ccoc3)cc12,i,0.93,100,-2.8,12,63,4
O=C(O)Cc1csc(-c2cccc(F)c2)n1,i,0.98,108,·,33,112,-3
CC(=O)Nc1nc(SCC(=O)NCc2ccc(F)cc2)[nH]c(=O)c1NC(=O)c1cccs1,i,0.89,94,·,·,·,2
Cc1cnc(C(=O)Nc2cc(S(=O)(=O)N3CCOCC3)ccc2N2CCN(C)CC2)cn1,i,1.1,95,0.0,-10,77,-4
COc1ccccc1OCC(=O)OCn1c(SC)nnc(C)c1=O,i,0.95,111,0.2,-11,135,1
CNC(=S)N(Cc1ccc(Cl)cc1)Cc1cccs1,i,1,104,·,·,·,·
COc1ccc(N2C(=O)C3CCCN3C2c2ccc(F)cc2)cc1Cl (centres undefined),i,1.1,77,-2.4,-162,137,-13
CCSc1nc2ccccc2n1C(=O)c1ccc(S(=O)(=O)N2CCCCC2)cc1,i,0.97,110,1.1,82*,177*,10
CCOC(=O)NC(=O)C(=CNc1ccccc1OC)C(=O)NC(=O)OCC,i,1,84,-1.6,-14,99,0
COc1ccc(Cl)cc1C(=O)Nc1ccccc1N1CCN(C)CC1,i,0.9,100,-2.1,-83,60,11
O=C(CNC(=O)c1ccccc1Cl)OCC(=O)N1CCc2ccccc21,i,0.86,103,·,·,·,-4
COc1ccc(NC(=O)CCSCCc2ccccn2)cc1OC,i,1.1,105,·,22,142,-1
Cn1cnnc1SCC(=O)Nc1ccc2nc(SCc3ccccc3Cl)sc2c1,i,0.79,103,-0.6,63,110,10
COc1ccc(NC(=O)C(Cc2ccccc2)n2cccc2)cc1OC (centres undefined),i,0.97,102,·,·,·,·
Cc1ccc(S(=O)(=O)NCCCNC(=O)c2ccccc2)cc1,i,0.98,4,-1.9,42,111,-5
CCOC(=O)C1CSC(CC(=O)Nc2ccc(Cl)cc2)C(=O)N1 (centres undefined),i,0.86,100,-2.3,-27,94,-4
COc1cc(C(N)=O)cc(Br)c1OC,i,1,102,-2.1,-492,73,0
COC(=O)C1C(=O)NC(SC)=C(C#N)C1c1ccccc1 (centres undefined),i,0.99,101,-0.5,-17,112,-3
CCc1nc2ccccc2c(C(=O)OCC(=O)NC(=O)c2cccn2C)c1C,i,1,103,·,·,·,·
Cc1cc(C(=O)OCC(=O)Nc2ccc(S(N)(=O)=O)cc2)c2ccccc2n1,i,1,94,·,44,68,0
COc1ccc(-c2csc(-c3ccc(C(=O)O)cc3)n2)cc1,i,1,104,·,-13,96,-6
Cc1ccc(NC(=O)C(NCc2ccccn2)c2ccccc2)cc1 (centres undefined),i,1.1,105,·,57,151,-1
CC1(C)CC2(CC(C)(C)N1)OC(=O)N1CCc3ccccc3C12C (centres undefined),i,0.79,105,-0.3,·,·,2
O=C(/C=C\Nc1ccc2c(c1)OCO2)c1ccccn1,i,1.1,81,0.0,·,·,3
O=C(O)C1Cc2ccccc2CN1C(=O)COc1ccc(Cl)cc1Cl (centres undefined),i,1,99,·,-15,119,0
COc1ccc(CCNC(C)=O)cc1,i,0.97,99,-1.7,-61,65,-5

5 compounds drawn at random from those above:
SMILES,HSV replic up,HSV replic up primary fold,RGS16-Gao HTS,GALR2 ag,Insulin prom inh,Insulin prom inh cell count,PKD1 inh
O=C1CC(SCc2nc3ccccc3[nH]2)C(=O)N1c1cccc(F)c1 (centres undefined),·,·,99,-0.8,-124,88,2
COc1ccc(-c2csc(-c3ccc(C(=O)O)cc3)n2)cc1,i,1,104,·,-13,96,-6
Cc1cc(NC(=O)CCC(=O)N(c2ccc(F)cc2)C(C(=O)NC2CCCC2)c2ccc(C)o2)no1 (centres undefined),i,0.99,102,·,·,·,-4
CNC(=S)N1N=C(c2ccc(OC)cc2)CC1c1ccc(N(C)C)cc1 (centres undefined),i,0.98,106,-0.4,23,113,2
O=C(/C=C\Nc1ccc2c(c1)OCO2)c1ccccn1,i,1.1,81,0.0,·,·,3

(further entries)
SMILES,HSV replic up,HSV replic up primary fold,RGS16-Gao HTS,GALR2 ag,Insulin prom inh,Insulin prom inh cell count,PKD1 inh
CC(C)(CC(=O)O)Cc1nc(-c2ccc(Cl)cc2)no1,i,0.93,101,0.3,·,·,-8
CCCn1c(SCC(=O)N2CCCC(C)C2)nnc1-c1cccnc1 (centres undefined),i,1,103,·,-10,106,-5
COc1cccc(NC(=S)NN=C2CCC(C(C)(C)C)CC2)c1 (centres undefined),i,1,103,·,-30,67,-7
COc1ccccc1CC(=O)N1CCCc2ccccc21,i,0.95,97,-2.1,-26,88,4
COc1cc(CNCC(C)C)cc(Br)c1OCC(=O)Nc1ccccc1,i,1.1,102,-1.6,-7,127,-12
CCn1c(C)nc2cc(C#N)ccc21,i,0.92,105,·,·,·,3
O=C(CCn1cccc1)NC1CCCc2ccccc21 (centres undefined),i,1,105,-1.4,-55,73,4
CCOn1c(=O)c(=O)n(OC)c2ccccc21,i,0.95,99,·,·,·,·
O=C(NCc1ccccc1Cl)C1CCN(C(=O)c2sccc2-n2cccc2)CC1,i,0.86,109,-0.4,·,·,3
N#Cc1cc(C(=O)c2cc(Br)ccc2O)cn(C2CC2)c1=O,i,0.98,105,-4.4,·,·,-6
COc1c(N2CCN(C(=S)Nc3ccc(F)cc3)C(C)C2)c(F)cc2c(=O)c(C(=O)O)cn(C3CC3)c12 (centres undefined),i,0.92,96,-1.8,-13,123,-5
CC(/C=N/NC(=O)c1nnn(-c2nonc2N)c1CN(C)C)=C\c1ccco1,i,0.98,96,·,·,·,·
